A1 apoptosis 2: A1 inhibition read as caspase activation; 24,000 tested, under 10 active; AID 2465; MEF A1-2A-BIM cells, caspase-Glo luminescence, 3 h; percent of clofoctol response, DMSO zero; caspase activation, % (test concentration not listed); in the data active means caspase activation above about 5.9%;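 further: wells of about 30 µL received 50 nL stock; the first replicate is given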
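Evaluation: Caspase-3/7 activity from luminescence increase | Assay system: A1-2A-BIM mouse embryonic fibroblasts | Quantity: 2500 MEF cells/well | Medium: RPMI-1640 plus 10% FBS | Detection: Caspase-Glo 3/7 luminescence, 1 h at room temperature | Dosing: 50 nL compound per well, pinned | Timing: Cells settled overnight, compound exposure 3 h at 37 °C, 5% CO2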
The depositor's hits bear a star. Not all compounds are listed; rates above refer to the full screens.

Sample of the layout (two entries):
Structure	A1 apoptosis 2
C[C@H](CO)N1C[C@H](C)[C@H](CN(C)S(=O)(=O)c2ccccc2)Oc2c(NC(=O)NC3CCCCC3)cccc2C1=O	0.0
COC(=O)CCCCCCC(=O)N/N=C/c1ccoc1	-0.8

The whole of this part (from the top)
Structure	A1 apoptosis 2
C[C@H](CO)N1C[C@H](C)[C@H](CN(C)S(=O)(=O)c2ccccc2)Oc2c(NC(=O)NC3CCCCC3)cccc2C1=O	0.0
COC(=O)CCCCCCC(=O)N/N=C/c1ccoc1	-0.8
Cc1noc(C)c1S(=O)(=O)Nc1ccc2c(c1)C(=O)N([C@H](C)CO)C[C@H](C)[C@H](CN(C)C(=O)Nc1ccccc1)OCCCC[C@@H](C)O2	-0.2
CC(C)NC(=O)N(C)C[C@H]1Oc2c(NS(=O)(=O)c3cccs3)cccc2C(=O)N([C@H](C)CO)C[C@@H]1C	0.7
COc1ccc(S(=O)(=O)Nc2cccc3c2O[C@H](CN(C)S(=O)(=O)c2ccc(C)cc2)[C@@H](C)CN([C@@H](C)CO)C3=O)cc1	0.3
C[C@@H]1CCCCO[C@H](CN(C)Cc2ccncc2)[C@H](C)CN([C@@H](C)CO)C(=O)c2cc(NS(=O)(=O)c3cccs3)ccc2O1	-1.3
Cc1cc(C(=O)Nc2cccc3c2O[C@H](CN(C)C(=O)Nc2ccccc2)[C@H](C)CN([C@@H](C)CO)C3=O)n(C)n1	0.0
COc1ccc(CN(C)C[C@H]2Oc3ccc(NC(=O)Nc4ccc(C(F)(F)F)cc4)cc3CC(=O)N([C@@H](C)CO)C[C@@H]2C)cc1	-0.3
CC(=O)Oc1ccccc1C(=O)OCO/N=[N+](\[O-])N1CCC[C@H]1C(=O)O	0.5
COc1ccc(CN(C)C[C@@H]2Oc3ccc(NS(=O)(=O)c4cccs4)cc3C(=O)N([C@@H](C)CO)C[C@@H]2C)cc1	-0.3

Structure	A1 apoptosis 2
CNC[C@H]1OCCCC[C@H](C)Oc2ccc(NS(=O)(=O)c3ccccc3)cc2C(=O)N([C@@H](C)CO)C[C@H]1C	0.9
C[C@H]1CN([C@@H](C)CO)C(=O)c2cc(NS(C)(=O)=O)ccc2O[C@@H]1CN(C)C(=O)Nc1ccc2c(c1)OCO2	-0.6
C[C@@H]1CN([C@@H](C)CO)C(=O)c2cccc(NC(=O)NC3CCCCC3)c2O[C@@H]1CN(C)Cc1ccncc1	-0.2
C[C@@H]1CN([C@@H](C)CO)C(=O)Cc2cc(NC(=O)Nc3ccc4c(c3)OCO4)ccc2O[C@@H]1CN(C)Cc1ccc(-c2ccccc2)cc1	0.8
COc1ccc(S(=O)(=O)N(C)C[C@H]2Oc3c(NS(C)(=O)=O)cccc3C(=O)N([C@H](C)CO)C[C@H]2C)cc1	1.6
C[C@@H]1CCCCO[C@@H](CN(C)S(=O)(=O)c2ccc(Cl)cc2)[C@@H](C)CN([C@@H](C)CO)C(=O)c2cc(NC(=O)C3CCCCC3)ccc2O1	1.3
O=C(NCC(O)CO)[C@@]1(CCS(=O)(=O)c2ccccc2)N=C(c2ccc(OCCCO)cc2)O[C@H]1c1ccccc1 (stereo partly specified)	0.7
COc1ccc(NC(=O)N(C)C[C@@H]2OCCCC[C@H](C)Oc3ccc(NS(=O)(=O)c4cccs4)cc3C(=O)N([C@H](C)CO)C[C@H]2C)cc1	0.3
COc1ccc(S(=O)(=O)N(C)C[C@@H]2Oc3ccc(NC(=O)Nc4ccccc4)cc3C(=O)N([C@@H](C)CO)C[C@H]2C)cc1	0.2
C[C@@H]1CCCCO[C@H](CN(C)Cc2ccc3c(c2)OCO3)[C@@H](C)CN([C@@H](C)CO)C(=O)c2cc(NS(=O)(=O)c3ccccc3)ccc2O1	0.5

Structure	A1 apoptosis 2
C[C@@H]1CCCCO[C@H](CN(C)C(=O)Nc2ccccc2)[C@H](C)CN([C@@H](C)CO)C(=O)c2cc(NS(C)(=O)=O)ccc2O1	-1.7
CNC[C@H]1Oc2ccc(NS(=O)(=O)c3ccccc3)cc2C(=O)N([C@H](C)CO)C[C@@H]1C	1.3
COc1ccc(S(=O)(=O)N(C)C[C@@H]2Oc3c(NC(=O)Nc4cccc5ccccc45)cccc3C(=O)N([C@@H](C)CO)C[C@@H]2C)cc1	0.2
C[C@H]1CN([C@@H](C)CO)C(=O)c2cccc(NC(=O)Nc3ccccc3)c2O[C@@H]1CN(C)S(=O)(=O)c1cn(C)cn1	0.8
C[C@@H]1CCCCO[C@@H](CN(C)CC2CCCCC2)[C@@H](C)CN([C@H](C)CO)C(=O)c2cc(NC(=O)c3ccncc3)ccc2O1	0.8
C[C@H]1CN([C@@H](C)CO)C(=O)c2cccc(NC(=O)NC3CCCCC3)c2O[C@@H]1CN(C)C(=O)Nc1cccc2ccccc12	0.0
C[C@@H]1CN([C@H](C)CO)C(=O)Cc2cc(NC(=O)Cc3cn(C)c4ccccc34)ccc2O[C@@H]1CN(C)S(=O)(=O)c1ccc(F)cc1	-0.8
C[C@@H]1CN([C@H](C)CO)C(=O)c2cccc(NC(=O)Nc3ccccc3)c2O[C@@H]1CN(C)C(=O)Nc1cccc2ccccc12	-0.8
C[C@@H]1CN([C@H](C)CO)C(=O)c2cc(NC(=O)Cc3ccccc3)ccc2O[C@H]1CN(C)Cc1ccc2c(c1)OCO2	1.0
C[C@H](CO)N1C[C@H](C)[C@H](CN(C)C(=O)Nc2ccc(F)cc2)Oc2ccc(NC(=O)CCCN(C)C)cc2C1=O	-1.0

Nothing new here: entries from further up.
Structure	A1 apoptosis 2
C[C@@H]1CCCCO[C@H](CN(C)C(=O)Nc2ccccc2)[C@H](C)CN([C@@H](C)CO)C(=O)c2cc(NS(C)(=O)=O)ccc2O1	-1.7
CNC[C@H]1Oc2ccc(NS(=O)(=O)c3ccccc3)cc2C(=O)N([C@H](C)CO)C[C@@H]1C	1.3
COc1ccc(S(=O)(=O)N(C)C[C@@H]2Oc3c(NC(=O)Nc4cccc5ccccc45)cccc3C(=O)N([C@@H](C)CO)C[C@@H]2C)cc1	0.2
C[C@H]1CN([C@@H](C)CO)C(=O)c2cccc(NC(=O)Nc3ccccc3)c2O[C@@H]1CN(C)S(=O)(=O)c1cn(C)cn1	0.8
C[C@@H]1CCCCO[C@@H](CN(C)CC2CCCCC2)[C@@H](C)CN([C@H](C)CO)C(=O)c2cc(NC(=O)c3ccncc3)ccc2O1	0.8
C[C@H]1CN([C@@H](C)CO)C(=O)c2cccc(NC(=O)NC3CCCCC3)c2O[C@@H]1CN(C)C(=O)Nc1cccc2ccccc12	0.0

Continued:
Structure	A1 apoptosis 2
CNC[C@H]1Oc2c(NC(=O)NC(C)C)cccc2C(=O)N([C@@H](C)CO)C[C@H]1C	-0.1
CNC[C@@H]1Oc2ccc(NS(C)(=O)=O)cc2CC(=O)N([C@H](C)CO)C[C@H]1C	-0.8
C[C@H](CO)N1C[C@H](C)[C@H](CN(C)Cc2cccc(C(F)(F)F)c2)Oc2ncc(Br)cc2C1=O	-0.2
COc1ccc(S(=O)(=O)Nc2ccc3c(c2)CC(=O)N([C@@H](C)CO)C[C@@H](C)[C@@H](CN(C)S(=O)(=O)c2ccccc2)O3)cc1	1.5
CNC[C@@H]1Oc2c(NC(=O)c3ccc(-c4nccs4)cc3)cccc2C(=O)N([C@@H](C)CO)C[C@H]1C	0.0
Cc1noc(C)c1NC(=O)N(C)C[C@@H]1Oc2ccc(NC(=O)Nc3ccccc3)cc2C(=O)N([C@H](C)CO)C[C@H]1C	1.1
C[C@H]1CN([C@@H](C)CO)C(=O)c2cc(NC(=O)Cn3cnnn3)ccc2O[C@H]1CN(C)C(=O)Nc1ccc2c(c1)OCO2	-2.0
COc1ccc(S(=O)(=O)N(C)C[C@H]2Oc3ccc(NC(=O)CCCN(C)C)cc3CC(=O)N([C@@H](C)CO)C[C@@H]2C)cc1	-1.4
Cc1noc(C)c1NC(=O)Nc1ccc2c(c1)CC(=O)N([C@H](C)CO)C[C@H](C)[C@@H](CN(C)C(=O)Nc1c(C)noc1C)O2	-0.7
COc1ccc(S(=O)(=O)Nc2cccc3c2O[C@@H](CN(C)S(=O)(=O)c2ccc(C)cc2)[C@H](C)CN([C@@H](C)CO)C3=O)cc1	0.6

Structure	A1 apoptosis 2
Cc1ccc(S(=O)(=O)Nc2cccc3c2O[C@@H](CN(C)Cc2ccc(C(F)(F)F)cc2)[C@H](C)CN([C@H](C)CO)C3=O)cc1	-0.4
C[C@H]1CN([C@@H](C)CO)C(=O)Cc2cc(NC(=O)CCC(F)(F)F)ccc2O[C@H]1CN(C)Cc1ccc(C(F)(F)F)cc1	-1.7
C[C@H]1CN([C@@H](C)CO)C(=O)c2cc(NS(=O)(=O)c3ccccc3)ccc2O[C@H]1CN(C)Cc1ccncc1	-1.3
Cc1ccc(/C=N/NC(=O)CCCCCC(=O)O)o1	-0.4
COc1ccc(S(=O)(=O)N(C)C[C@H]2Oc3ccc(NC(=O)CCC(F)(F)F)cc3C(=O)N([C@@H](C)CO)C[C@@H]2C)cc1	0.1
Cc1ccc(S(=O)(=O)Nc2ccc3c(c2)C(=O)N([C@H](C)CO)C[C@@H](C)[C@H](CN(C)C(=O)Cc2ccccc2)OCCCC[C@@H](C)O3)cc1	0.4
C[C@@H]1CN([C@H](C)CO)C(=O)c2cc(NC(=O)Cc3ccccc3)ccc2O[C@@H]1CN(C)S(=O)(=O)c1ccccc1	-0.2
C[C@H]1CN([C@@H](C)CO)C(=O)c2cccc(NC(=O)Nc3ccc4c(c3)OCO4)c2O[C@H]1CN(C)S(=O)(=O)c1ccc(Cl)cc1	-2.5
C[C@H](CO)N1C[C@H](C)[C@H](CN(C)S(=O)(=O)c2ccc(F)cc2)Oc2c(NC(=O)Nc3ccc(F)cc3)cccc2C1=O	-0.8
C[C@@H]1CN([C@@H](C)CO)C(=O)Cc2cc(NC(=O)CCN3CCOCC3)ccc2O[C@H]1CN(C)Cc1ccc(Cl)c(Cl)c1	0.9

Structure	A1 apoptosis 2
COc1ccc(CN(C)C[C@@H]2OCCCC[C@H](C)Oc3ccc(NC(=O)Cc4ccccc4)cc3C(=O)N([C@H](C)CO)C[C@@H]2C)cc1	-1.4
C[C@@H]1CCCCO[C@H](CN(C)C(=O)CCC(F)(F)F)[C@@H](C)CN([C@@H](C)CO)C(=O)c2cc(NS(=O)(=O)c3ccccc3)ccc2O1	-1.3
C[C@@H]1CN([C@@H](C)CO)C(=O)c2cc(NC(=O)C3CCCCC3)ccc2O[C@@H](C)CCCCO[C@H]1CN(C)S(=O)(=O)c1cn(C)cn1	0.4
C[C@H]1CN([C@@H](C)CO)C(=O)c2cccc(NS(=O)(=O)c3cccs3)c2O[C@H]1CN(C)Cc1ccc(C(=O)O)cc1	-1.5
C[C@H](CO)N1C[C@H](C)[C@@H](CN(C)Cc2ccc(Cl)c(Cl)c2)OCc2cn(nn2)CCCC1=O	-1.2
C[C@H](CO)N1C[C@H](C)[C@@H](CN(C)Cc2ccc(Oc3ccccc3)cc2)Oc2ccc(NC(=O)CCN3CCOCC3)cc2C1=O	0.1
O=C(Nc1ccccc1)C1=C[C@@H](c2ccc(Br)cc2)C[C@@H](OCc2ccc(CO)cc2)O1	0.3
COc1ccc(NC(=O)N(C)C[C@@H]2Oc3c(NC(=O)Nc4ccccc4)cccc3C(=O)N([C@H](C)CO)C[C@H]2C)cc1	-0.9
C[C@H](CO)N1C[C@H](C)[C@H](CN(C)S(=O)(=O)c2cn(C)cn2)Oc2ccc(NC(=O)CCCCCC(=O)Nc3ccccc3N)cc2C1=O	1.0
C[C@H](CO)N1C[C@H](C)[C@@H](CN(C)S(C)(=O)=O)Oc2c(NC(=O)C3CCCCC3)cccc2C1=O	-0.5

Structure	A1 apoptosis 2
COc1ccc(CN(C)C[C@H]2Oc3ccc(NC(=O)NC(C)C)cc3CC(=O)N([C@@H](C)CO)C[C@@H]2C)cc1	-1.6
C[C@@H]1CN([C@@H](C)CO)C(=O)c2cccc(NS(=O)(=O)c3cccs3)c2O[C@H]1CN(C)C(=O)Nc1ccc(C(F)(F)F)cc1	0.0
C=CCN1Cc2ccccc2[C@@H]2OC(c3ccc(OCCCO)cc3)=N[C@]2(CCS(=O)(=O)c2ccccc2)C1=O	0.0
C[C@H]1CN([C@@H](C)CO)C(=O)Cc2cc(NC(=O)Cn3cnnn3)ccc2O[C@H]1CN(C)C(=O)Nc1ccccc1	-0.1
C[C@@H]1CN([C@H](C)CO)C(=O)c2cccc(N(C)C)c2O[C@@H]1CN(C)C	0.4
Cc1ccc(S(=O)(=O)N(C)C[C@@H]2OCCCC[C@@H](C)Oc3ccc(NC(=O)Nc4ccc5c(c4)OCO5)cc3C(=O)N([C@H](C)CO)C[C@@H]2C)cc1	0.4
C[C@@H]1CN([C@@H](C)CO)C(=O)c2cc(NS(C)(=O)=O)ccc2O[C@@H]1CN(C)Cc1ccc2c(c1)OCO2	-1.5
COC(=O)CCCCCCC(=O)N/N=C/c1ccccc1	-0.9
CCCN(C)C[C@@H]1OCCCC[C@@H](C)Oc2ccc(NC(=O)Nc3ccc(OC)cc3)cc2C(=O)N([C@H](C)CO)C[C@@H]1C	1.5
COc1ccc(NC(=O)Nc2ccc3c(c2)C(=O)N([C@H](C)CO)C[C@@H](C)[C@H](CN(C)C(=O)Nc2ccc4c(c2)OCO4)O3)cc1	1.9
O=C(C1=C[C@@H](C2CC2)C[C@@H](OCCCCO)O1)N1CCOCC1	1.4
C[C@@H]1CCCCO[C@H](CN(C)Cc2ccccc2)[C@H](C)CN([C@@H](C)CO)C(=O)c2cc(NC(=O)Nc3cccc4ccccc34)ccc2O1	-0.2
C[C@@H]1CCCCO[C@H](CN(C)S(=O)(=O)c2cccs2)[C@H](C)CN([C@@H](C)CO)C(=O)c2cc(N(C)C)ccc2O1	0.1
